Lassa entry inh – blocks Lassa virus binding to or entry into cells; Lassa virus pseudotype entry inhibition, cell reporter; control for the full effect not named in the record; Potency, µM (titrated, usually from 37.9 µM), inactives show at the top dose activity change, negative = inhibition, hits mostly inhibitors; hit rate 1.2% among 300,000; active means well fitted inhibition curve with a large enough effect; inconclusive means small, poorly fitted or top-dose-only effect, or effect the other way; inactive means flat fitted curve, though single readings scatter; tested in HEK293 cells; note: % is set by controls: 0 for no effect and ±100 for the full control effect; nearly all actives have a fitted effect of over 50% in size; luciferase read-out
RE007 growth inh – less growth of the S. pombe RE007 Vpr strain; S. pombe RE007 Vpr strain, BacTiter-Glo ATP luminescence, 24 h; control for the full effect not named in the record; Potency, µM (highest dose often 92.2 µM), for inactives: top-dose activity change, negative = less growth; hit rate 0.21% among 360,000; active = well fitted falling curve with a large enough effect; inconclusive = small, poorly fitted or top-dose-only effect; inactive = no such curve, though single readings can be large or run the other way;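 note: % is set by controls: 0 for no effect and ±100 for the full control effect; nearly all actives have a fitted effect of over 50% in size; the assay follows cell death caused by Vpr and the record does not say whether a fall means rescue or toxicity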
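Fission yeast RE007 carrying one integrated HIV-1 vpr copy, seeded at OD 0.01 in PMG+AL medium with 23 nL pinned compound. Grown 24 h at 30 degrees; viability read by BacTiter-Glo luminescence after 5 min.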
Cruzain Triton – cruzain (T. cruzi) inhibition with detergent. P25779. hit rate 0.43% among 200,000. purified cruzain, Z-FR-AMC fluorescence, 0.01% Triton. AID 1478. Potency, µM, inactives show max response, negative = inhibition, hits mostly inhibitors; active = well fitted curve in the direction sought with a large enough effect; inconclusive = small, poorly fitted or top-dose-only effect, or another doubt; inactive = no such curve, though single readings can be large; an effect the other way counts as inactive or inconclusive;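 note: plate controls were neutral wells for no effect and buffer without enzyme for full effect; nearly all actives have a fitted effect of over 40% in size; top concentration of the series not given in the record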
Target sequence (P25779 123-467 limits assumed): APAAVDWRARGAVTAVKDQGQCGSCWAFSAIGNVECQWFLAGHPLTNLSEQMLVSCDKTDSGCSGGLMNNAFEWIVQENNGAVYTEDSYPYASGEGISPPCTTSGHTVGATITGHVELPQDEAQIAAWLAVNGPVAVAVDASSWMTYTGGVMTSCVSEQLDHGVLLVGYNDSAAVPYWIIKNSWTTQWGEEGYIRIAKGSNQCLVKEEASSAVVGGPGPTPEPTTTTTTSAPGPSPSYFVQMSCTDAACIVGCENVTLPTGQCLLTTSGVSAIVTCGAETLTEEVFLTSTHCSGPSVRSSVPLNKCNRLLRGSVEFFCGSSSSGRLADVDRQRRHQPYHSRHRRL
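Sodium acetate buffer (100 mM, pH 5.5) containing 5 mM DTT and 0.01% Triton X-100 hosted 1.5 nM cruzain and test compound for 15 min at room temperature. Cleavage of 2 uM Z-FR-AMC was then tracked by fluorescence.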
NS1 function inh – influenza NS1 inhibition. S. cerevisiae slowed by influenza A NS1, growth recovery by OD600. Potency, µM (top dose mostly 46.1 µM), without a hit: at the top dose activity, positive = more growth. hit rate 0.4% among 270,000; note: actives are rising curves; nearly all actives have a fitted effect of over 50% in size
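Recovery from NS1-induced slow growth read by OD600 in budding yeast switched to galactose assay medium (pH 6.0, -URA) at 1:100 dilution. Compound 23 nl per well; the matching strain lacking NS1 serves as control.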
StopGo reporter – FMDV 2A StopGo reporter, luciferase signal. hit rate 1.2% among 410,000. Potency, µM (highest dose often 57.9 µM), for the others: at the top dose signal change, negative = less light. human cells with a luciferase reporter of 2A StopGo recoding; control for the full effect not named in the record; active = well fitted falling curve with a large enough effect; inconclusive = small, poorly fitted or top-dose-only effect; inactive = no such curve, though single readings can be large or run the other way; tested in HEK293T cells; note: % is set by controls: 0 for no effect and ±100 for the full control effect; nearly all actives have a fitted effect of over 45% in size; luciferase light after 4 h
Cruzain inh noDet – cruzain (T. cruzi) inhibition without detergent. P25779. purified cruzain, Z-FR-AMC fluorescence, no detergent. Potency, µM, without a hit: max response, negative = inhibition, most hits filed as inhibitors. hit rate 2.3% among 200,000; active = well fitted curve in the direction sought with a large enough effect; inconclusive = small, poorly fitted or top-dose-only effect, or another doubt; inactive = no such curve, though single readings can be large; an effect the other way counts as inactive or inconclusive;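 note: plate controls were enzyme without inhibitor for no effect and buffer without enzyme for full effect; nearly all actives have a fitted effect of over 40% in size; top concentration of the series not given in the record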
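Purified cruzain at 1.5 nM, pre-incubated 15 min with compound at room temperature in 100 mM sodium acetate pH 5.5, 5 mM DTT, 0.00005% Triton X-100. Reaction started with 2 uM Z-FR-AMC; AMC fluorescence increase over 60 s gives rate.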
Marburg entry inh – blocks Marburg virus binding to or entry into cells; AID 540276; Marburg virus pseudotyped entry inhibition, cell reporter; control for the full effect not named in the record; about a third of the inactives were read at about 46 µM; hit rate 1.8% among 300,000; Potency, µM (top dose mostly 37.8 µM), without a hit: at the top dose activity change, negative = inhibition, most hits filed as inhibitors; active = well fitted inhibition curve with a large enough effect; inconclusive = small, poorly fitted or top-dose-only effect, or effect the other way; inactive = flat fitted curve, though single readings scatter; tested in HEK293 cells; about a fifth of its hits are not listed in these tables; note: % is set by controls: 0 for no effect and ±100 for the full control effect; luciferase read-out
SARS PLP yeast – blocks SARS-CoV papain-like protease in a yeast assay; Potency, µM (titrated, usually from 32.9 µM), for inactives: at the top dose activity, positive = growth rescue; S. cerevisiae expressing SARS-CoV PLpro, growth rescue; control for the full effect not named in the record; hit rate 0.19% among 330,000; AID 485353; note: 0% is about no effect; nearly all actives have a fitted effect of over 55% in size; growth read by luminescence after 48 h
* marks the source's active call; other numbers are inactive results; u = inconclusive; x = no result given; & = joins results of further samples; [ ] = another dose, or the depositor's remark. Unless noted, calls come from the whole dose curve; as a rule, active means well fitted rising curve with a large enough effect; inconclusive means small, poorly fitted or top-dose-only effect; inactive means no such curve, though single readings can be large or run the other way. Potency is the fitted concentration of half-maximal effect.

no.	molecule	Lassa entry inh	RE007 growth inh	Cruzain Triton	NS1 function inh	StopGo reporter	Cruzain inh noDet	Marburg entry inh	SARS PLP yeast
1	CCC1(CC)NC(=O)N(CC(=O)OCC(=O)Nc2ncc(Cl)cc2Cl)C1=O	11%	5%	x	x	-24%	x	-5%	-6%
2	Cn1c(=O)[nH]c(=O)c2c1nc(N1CCCCC1)n2CC(O)CN1CCCCC1 (stereo not drawn)	-21%	9%	3.0%	3%	-12%	-2%	-20%	5%
3	O=C(Nc1nccs1)C(Cl)(Cl)Cl	-10%	16%	x	-24%	-18%	x	12%[46.1 µM]	-13%
4	CC1CCCC(C)N1C(=O)COC(=O)CCC(=O)c1cccs1 (stereo not drawn)	2%[46.1 µM]	14%	x	x	7%	x	2%[46.1 µM]	2%
5	CCC(=O)N1CC2(C)CN(C(=O)CC)CC(C)(C1)C2	5%	-6%	-2.0%	-1%	-17%	-3%	-2%	5%
6	O=C(COC(=O)c1cccc(S(=O)(=O)N2CCOCC2)c1)c1ccccc1	x	0%	x	-9%	36%[activator]	x	u	-1%
7	Cn1c(=O)[nH]c(=O)c2c1nc(CN1CCN(c3ccccc3)CC1)n2Cc1c(F)cccc1Cl	-8%[46.1 µM]	x	0.8%	x	-13%	1%	-1%[46.1 µM]	x
8	CC(=O)NCC(=O)NC1CCCc2c1cnn2-c1ccc(C(C)(C)C)cc1 (stereo not drawn)	u	-7%	x	2%	-6%	x	-5%[46.1 µM]	-5%
9	CCN1C(=O)C2C(c3cccc(F)c3)NC(C)(C(=O)OC)C2C1=O (stereo not drawn)	0%	-11%	2.0%	-7%	-16%	-1%	-4%	-8%
10	O=c1c2ccccc2nc(/C=C/c2ccc3c(c2)OCO3)n1CCCO	u	29%	x	-7%	27%	x	u	0%
11	CCOC(=O)C1CCN(C(=O)C2CCN(c3nnc(-n4cccc4)s3)CC2)CC1	x	-12%	x	6%	-22%	x	x	-4%
12	CC(C)c1ccc(C2N3CCCN23)cc1 (stereo not drawn)	13%	10%	-2.1%	-18%	24%	-6%	u	-15%
13	N=C1C(c2ccccc2)=C(O)CN1c1cccc(S(=O)(=O)N2CCCCC2)c1	x	-6%	x	-5%	-13%	x	x	-1%
14	Cn1c(/C=N/NC(=O)c2ccccc2Br)nc2ccccc21	u	-7%	-14%	-28%	x	-8%	14%	-2%
15	O=C1C2C3C=CC(C4CC34)C2C(=O)N1/N=C/c1ccc([N+](=O)[O-])o1 (stereo not drawn)	u	u	x	x	u	x	u	-13%
16	COc1cc(C)ccc1OCCCOc1ccccc1Br	u	-5%	-8.8%	-13%	26%	4%	-12%	1%
17	C[n+]1c(-c2ccccc2)cc2c(=Cc3ccccc3)c3ccccc3n21	7.9µM*	u	x	x	3.5µM*	x	u	x
18	CC(OC(=O)/C(C#N)=C/c1ccco1)C(=O)N(C)c1ccccc1 (stereo not drawn)	3%[46.1 µM]	-11%	x	x	9%	x	-10%[46.1 µM]	-3%
19	CC(=O)c1ccc(NC(=O)CSc2nc(C3CCCC3)nc3c2c(=O)n(C)c(=O)n3C)cc1	2%[46.1 µM]	x	1.1%	x	u	-4%	x	x
20	CCN(CC)S(=O)(=O)c1ccc(C(=O)NCc2cccs2)cc1	2.9µM*	7%	1.6%	0%	1%	-6%	10%	x
21	CCCCCOC(=O)CSc1ncnc2sc3c(c12)CCC(C)C3 (stereo not drawn)	u	x	-3.0%	x	-5%	6%	4%[46.1 µM]	x
22	CC1Cc2ccccc2N1C(=O)CSc1nc2cc3c(cc2cc1C#N)OCO3 (stereo not drawn)	-11%	1%	-1.1%	-20%	-7%	u	7%	6%
23	CCC(C)(NC(=O)c1ccc(=O)[nH]c1)C(=O)NC1CCCC1 (stereo not drawn)	x	-4%	3.5%	-8%	-24%	8%	x	-13%
24	COc1ccc(NS(=O)(=O)c2ccc3c(c2)NC(=O)C(C)S3)cc1 (stereo not drawn)	x	-5%	x	24%	-7%	x	x	0%
25	O=C(c1cnn2c(C(F)F)cc(-c3ccccc3)nc12)N1CCc2ccccc21	4%[46.1 µM]	8%	x	0%	-24%	x	u	0%
26	CC1CC(=O)N(c2ccc(NCc3ccccc3Cl)c([N+](=O)[O-])c2)C1=O (stereo not drawn)	-8%	-7%	-7.1%	18%	-8%	1%	0%	23%
27	Cc1nn(-c2ccc(N3CCCCC3)nn2)c(C)c1CCC(=O)NCc1ccc(OC(C)C)cc1	u	x	-1.1%	x	-10%	27%	x	x
28	COc1cccc(C(=O)N2CCN(Cc3ccccn3)CC2)c1OC	25%	-10%	6.7%	11%	-14%	0%	2%&-1%	-11%
29	Cc1cccc(C)c1NC1=C(Cl)C(=O)OC1OC(C)C (stereo not drawn)	14%	14%	1.7%	17%	16%	-9%	-19%	-11%
30	COc1ccc(C(=O)NCc2nnc(SCCOc3ccccc3)n2C)cc1	-9%	24%	x	-4%	0%	x	u	0%
31	CCOc1cc(CNCCc2ccc(S(N)(=O)=O)cc2)ccc1OCc1ccccc1	u	-11%	5.4%	17%	u	2%	6.5µM*	-1%
32	CC(=O)N1N=C(c2cccc(NS(C)(=O)=O)c2)CC1c1ccc2c(c1)OCO2 (stereo not drawn)	x	8%	x	7%	9%	x	x	8%
33	Cc1[nH]c2ccccc2c1C(=O)C(=O)N1CCN(C)CC1	u	-17%	x	x	2%	x	3%[46.1 µM]	0%
34	COc1ccc(CCNC(=O)CSC2=Nc3ccccc3C3=NC(C(C)C)C(=O)N23)cc1OC (stereo not drawn)	20%	5%	-2.0%	-1%	-6%	0%	7%	5%
35	O=C(Nc1ccc(NC(=O)c2cccs2)cc1)c1ccccc1	u	-3%	x	-6%	46%[activator]	x	u	0%
36	Cc1ccc(C(=O)OCC(=O)Nc2ccc(N3CCOCC3)cc2)cc1	23%	-21%	x	x	-2%	x	7%	4%
37	CC1CCCC(C)N1CCOc1cc(N)ccc1C#N (stereo not drawn)	13%[46.1 µM]	-19%	x	x	-19%	x	1%[46.1 µM]	x
38	CC(=O)Nc1ccc(S(=O)(=O)NCCC(=O)OCCN2C(=O)c3ccccc3C2=O)cc1	15%	3%	-0.5%	1%	15%	6%	-4%&0%	1%
39	O=C(Nc1cccnc1)c1ccc(Br)s1	26%	-3%	1.3%	-33%	39%[activator]	6%	17%	-6%
40	CCOc1cc(-c2noc(CCC(=O)NC3CCCCC3)n2)ccc1OC	-5%	-17%	x	-4%	-12%	x	0%[46.1 µM]	-2%
41	CCOC(=O)N1CCN(C(=O)CN(Cc2ccccc2)S(=O)(=O)c2ccc(OC)c(Cl)c2)CC1	u	-1%	-5.8%	-6%	u	u	1%	0%
42	Cc1ccc(C)n1-c1nn(S(=O)(=O)c2cccc(C(F)(F)F)c2)c2cccc(F)c12	1%[46.1 µM]	-8%	x	15%	-21%	x	u	-2%
43	Cn1cccc1Cc1nnc(SCC(=O)Nc2nccs2)n1C	x	-11%	x	15%	16%	x	x	u
44	CCc1nc2onc(C)c2c(=O)n1CC(=O)O	-16%[46.1 µM]	x	-1.0%	x	-10%	2%	-15%[46.1 µM]	x
45	CN(C)C(=C(C#N)C#N)N1CCN(c2ccc(Cl)cc2)CC1	1%	-1%	x	-5%	-9%	x	0%[46.1 µM]	1%
46	CN(C)C(CNS(=O)(=O)c1cc([N+](=O)[O-])ccc1Cl)c1ccco1 (stereo not drawn)	14%[46.1 µM]	13%	x	x	35%[activator]	x	1%[46.1 µM]	5%
47	CCN(C(=O)COC(=O)c1ccc2[nH]c(C)c(C)c2c1)c1c(N)n(Cc2ccccc2)c(=O)[nH]c1=O	-15%	19%	x	x	-17%	x	11%	x
48	CN=C(Nc1cc(C)nn1CCC#N)c1ccc(F)cc1	-15%	4%	4.3%	7%	x	-5%	-1%	0%
49	CC1(c2cccc(Br)c2)NC(=O)N(CC(=O)c2ccc3c(c2)OCCO3)C1=O (stereo not drawn)	-4%	-3%	x	x	-22%	x	23%	7%
50	CC(=O)N1CCN(c2ccc(NC(=O)c3ccccc3C)cc2)CC1	6%	7%	x	7%	1%	x	u	4%

Further records follow:
no.	molecule	Lassa entry inh	RE007 growth inh	Cruzain Triton	NS1 function inh	StopGo reporter	Cruzain inh noDet	Marburg entry inh	SARS PLP yeast
51	O=C(CN1CCCN(Cc2cccc(F)c2)S1(=O)=O)Nc1ccc2c(c1)OCCO2	-12%[46.1 µM]	x	-2.6%	x	-13%	-2%	x	x
52	CCc1ccc(NC(=O)c2c(Cl)nc(C)c(Cl)c2C)cc1	-45%	0%	-3.0%	1%	-13%	-2%	u	6%
53	CC(=O)c1ccc(N2CCN(S(=O)(=O)c3cc4c(cc3C)NC(=O)CO4)CC2)cc1	x	5%	x	17%	u	x	x	-4%
54	CCCn1c(=O)c(C(=O)NCc2ccccc2)c(O)c2ccccc21	5%[46.1 µM]	8%	x	-2%	5%	x	-1%[46.1 µM]	-6%
55	COC(=O)c1ccccc1NC(=O)COC(=O)/C=C/c1cccs1	-28%	3%	x	x	-23%	x	-9%	10%
56	N#Cc1c(SCc2cccc(Cl)c2)sc(C(=O)c2ccccc2)c1N	u	-4%	4.7%	-54%	u	-17%	u	11%
57	CCOC(=O)c1sc(NC(=O)c2cccnc2)nc1C	x	-10%	1.9%	-10%	53%[activator]	2%	x	3%
58	O=C(c1ccc2c(c1)C(=O)N(Cc1ccncc1)C2=O)N1CCN(S(=O)(=O)c2ccc(OC(F)(F)F)cc2)CC1	u	21%	x	x	-15%	x	u	x
59	CCOc1ccc(C(F)(F)F)cc1NC(C)=O	-5%	1%	0.8%	-1%	-15%	0%	u	-7%
60	CCOC(=O)/C(C#N)=C1/C=CNC(=O)N1	15%	-1%	-7.1%	u	11%	-6%	-3%	-8%
61	CC(C)CNS(=O)(=O)c1ccc(OCC(=O)NCc2ccco2)cc1	-6%	-3%	2.2%	2%	49%[activator]	2%	-12%	23%

From PubChem

Outcome played no part in choosing rows; 4.8% or so of the library scored in one or more.
